# Compound activity as filed in PubChem.
# Mtb hypoxia inh: reduces hypoxia-regulated biosensor signal in M. tuberculosis. M. tuberculosis hypoxia-regulated fluorescent reporter, fluorescence. fluorescence inhibition, % (no concentration beside the values). 0.1% of 300,000 active. AID 1159583;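 active means 35 to 45% if threefold the growth effect, above 45% if 1.5-fold the growth effect; inactive means the rest, general growth blockers included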;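 further: wells of about 50 µL received 100 nL stock; 0% = vehicle wells and 100% = reference inhibitor wells; whole bacteria with a GFP reporter of the hypoxia response; strong numbers were not always called active; many hits fall short of the cut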
# Sa RN4220 lethal: S. aureus RN4220 growth inhibition | OD600, 16 h | inhibition, % (test concentration not listed) | 0.33% of 330,000 active | AID 1259311;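 active means z-score of -3 or lower and OD600 up to 0.18 on both plates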;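 further: plate controls were untreated cells for no effect and reference antibiotic for full effect; stock transfer was 100 nL into about 80 µL; one replicate is shown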
# ugtP null kill: growth inhibition of S. aureus ugtP deletion strain; S. aureus RN4220 ugtP deletion, OD600 growth, 16 h; some inactives read as strong as hits; growth inhibition, % (concentration not given with the values); 0.54% of 330,000 active; AID 1259309;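 active means z-score under -3 and OD600 up to 0.15 on both plates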;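 further: plate controls were untreated wells for no effect and antibiotic for full effect; wells of about 80 µL received 100 nL stock; the first replicate is given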
# Autofluor counter: counter-screen for toxin protease inhibitors: compound fluorescence; fluorescence intensity (concentration not given with the values); 3.1% of 360,000 active; AID 624483; compound autofluorescence counterscreen, microsphere flow cytometry; hits give high values;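 active means at least 3 SD above the mean of all compounds, about 16000 in these data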;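 further: 100 nL of 1 mM stock went into each well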
# PrP 5UTR inh: inhibition of PrP 5' UTR reporter expression | cell-based PrP 5' UTR mRNA reporter, plate reader | inhibition, % (test concentration not listed) | 0.35% of 340,000 active | AID 488862;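 active means every replicate at 50% or more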;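 further: 0 = median of the neutral control wells; tested in H4 reporter cells; numbers are from one replicate; inactives centre near -14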
# BJeLR viability: BJeLR cell viability loss; inhibition, % (concentration not given with the values); BJeLR (HRASV12) viability, CellTiter-Glo ATP luminescence, 48 h; reference of the scale not given here; 0.17% of 300,000 active;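 active means replicate mean above 50%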;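 further: 50 nL library stock added to about 25 µL; numbers are from one replicate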
# Mtb hypoxia inh growth: recorded beside Mtb hypoxia inh, whose call it bears; growth inhibition, %; measured here: M. tuberculosis growth (absorbance);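 0% = vehicle and 100% = reference antibiotic; read after six days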
# Numbers without * were called inactive; nt = no result given; & = joins results of further samples. This is a random part of the collection; about 4% have a hit in one of these screens.
# A first look (4 entries):
[1] CCOC(=O)c1cc2c(=O)n3cccc(C)c3nc2n(CC2CCCO2)c1=NC(C)=O (centres undefined)
[2] CCC(C)(C)NC(=O)C(c1cccc(OC)c1OC)N(Cc1ccc(OC)cc1)C(=O)CCC(=O)Nc1cc(C)on1 (centres undefined)
[3] CCCCc1ccc(NC(=O)CSc2nc(=O)n(CCN(CC)CC)c3c2CCC3)cc1
[4] COc1cccc(N/C(C)=C/C(=O)c2ccc(Br)cc2)c1
compound no.,1,2,3,4
Mtb hypoxia inh,5,-7,8,nt
Mtb hypoxia inh growth,-4,-4,8,nt
Sa RN4220 lethal,-11,0.9,3.8,1.7
ugtP null kill,-5,7,8,70
Autofluor counter,4111&2918,4024,8421,4582
PrP 5UTR inh,-23&-3,-12,-8,-19
BJeLR viability,4,-1,5,-2

# This part in full, from the start:
[1] CCOC(=O)c1cc2c(=O)n3cccc(C)c3nc2n(CC2CCCO2)c1=NC(C)=O (centres undefined)
[2] CCC(C)(C)NC(=O)C(c1cccc(OC)c1OC)N(Cc1ccc(OC)cc1)C(=O)CCC(=O)Nc1cc(C)on1 (centres undefined)
[3] CCCCc1ccc(NC(=O)CSc2nc(=O)n(CCN(CC)CC)c3c2CCC3)cc1
[4] COc1cccc(N/C(C)=C/C(=O)c2ccc(Br)cc2)c1
[5] COc1cc(NC(=O)c2csc(N)n2)cc(C(=O)Nc2cccc(C(F)(F)F)c2)c1
[6] COc1ccc(CN2CCCCC2C)c(C)c1C (centres undefined)
compound no.,1,2,3,4,5,6
Mtb hypoxia inh,5,-7,8,nt,-9,8
Mtb hypoxia inh growth,-4,-4,8,nt,-5,10
Sa RN4220 lethal,-11,0.9,3.8,1.7,-0.1,3.3
ugtP null kill,-5,7,8,70,-23,-2
Autofluor counter,4111&2918,4024,8421,4582,3542&3983,9621
PrP 5UTR inh,-23&-3,-12,-8,-19,-17,-25
BJeLR viability,4,-1,5,-2,36,6

# 2 compounds picked at random from the list so far:
[2] CCC(C)(C)NC(=O)C(c1cccc(OC)c1OC)N(Cc1ccc(OC)cc1)C(=O)CCC(=O)Nc1cc(C)on1 (centres undefined)
[4] COc1cccc(N/C(C)=C/C(=O)c2ccc(Br)cc2)c1
compound no.,2,4
Mtb hypoxia inh,-7,nt
Mtb hypoxia inh growth,-4,nt
Sa RN4220 lethal,0.9,1.7
ugtP null kill,7,70
Autofluor counter,4024,4582
PrP 5UTR inh,-12,-19
BJeLR viability,-1,-2

# Other compounds.
[7] O=C(COC(=O)c1cccc(NC(=O)c2ccco2)c1)c1ccc(Br)cc1
[8] CC1CN(C(=O)c2ccc(Br)c(S(=O)(=O)N3CCOCC3)c2)CC(C)O1 (centres undefined)
[9] O=C(NCc1ccco1)c1csc2c1CCCC2
[10] CCCC(=O)Nc1ccc(C(=O)COC(=O)C2CC2)cc1
[11] O=S(=O)(NCCc1csc(-c2ccc(C(F)(F)F)cc2)n1)c1ccc2c(c1)OCCO2
[12] COCC(C)N1CCC(Oc2cccc(C(=O)NCCc3ccccc3)c2)CC1 (centres undefined)
compound no.,7,8,9,10,11,12
Mtb hypoxia inh,5,0,nt,10,-3,7
Mtb hypoxia inh growth,4,6,nt,-1,5,5
Sa RN4220 lethal,13,2.0,7.3,0.7,-21,3.8
ugtP null kill,-14,1,2,1,11,3
Autofluor counter,10151,8773,4776,4709,5815,5583
PrP 5UTR inh,-67,-4,-10,-66,-5,-34
BJeLR viability,6,nt,-7,nt,-1,-11

[13] CCOCCCN(C(=O)c1ccco1)C(C(=O)NC1CCCC1)c1cccc(OC)c1OC (centres undefined)
[14] C/C(=N/NC(=O)c1cc(-c2cccc([N+](=O)[O-])c2)n[nH]1)c1ccc(Cl)cc1
[15] O=C(CCNC(=O)c1ccc(Cl)cc1)NNC(=O)c1ccc(F)cc1
[16] NC(N)=N/N=C/c1cc([N+](=O)[O-])ccc1O
[17] Cn1cnnc1SCC(=O)c1c[nH]c2ccccc12
[18] O=C1C=C(N2CCOCC2)CCC1
compound no.,13,14,15,16,17,18
Mtb hypoxia inh,-12,nt,-7,nt,0,11
Mtb hypoxia inh growth,9,nt,10,nt,-2,12
Sa RN4220 lethal,22,nt,-5.6,nt,0.0,4.5
ugtP null kill,5,nt,-5,nt,-1,-10
Autofluor counter,3325,10348,5604,1946,25248*,3941
PrP 5UTR inh,-9,-15,-14,-16,-37,-12
BJeLR viability,9,1,nt,-1,5,1

[19] CC1CCN(CCCNC(=O)c2nn(C)c3c2CS(=O)(=O)c2ccccc2-3)CC1
[20] Cc1ccc(NC(=O)N2CCC(C(N)=O)CC2)cc1
[21] O=C(Nc1ccccc1Oc1ccccc1)C1CCCC1
[22] Cc1cc(N2CCCCC2)nc(NCc2ccccc2)n1
[23] CCOC(=O)C1=C(C)NC(=O)C(C(N)=O)C1c1ccccc1 (centres undefined)
[24] O=C(/C=C/Nc1ccc(S(=O)(=O)Nc2cnc3ccccc3n2)cc1)c1ccccc1
compound no.,19,20,21,22,23,24
Mtb hypoxia inh,11,-4,6,nt,nt,16
Mtb hypoxia inh growth,2,4,5,nt,nt,11
Sa RN4220 lethal,1.1,0.1,5.2,nt,0.1,17
ugtP null kill,11,-2,5,nt,3,-5
Autofluor counter,5629,4056,2379,4116,3931,3600
PrP 5UTR inh,-28,-30,-20,-4,-7,-19
BJeLR viability,4,-8,-12,42,-2,-5

[25] CC1(C)NC(=O)N(CCCOc2ccc3c(c2)CCC3)C1=O
[26] CSc1ccc(C=NN2CCN(c3ccccc3)CC2)cc1
[27] S=c1[nH]nc(-c2cc3c(s2)-c2ccccc2CC3)o1
[28] CCCCn1c(N)c(N(CC)C(=O)c2cccc(C)c2)c(=O)[nH]c1=O
[29] CCN(C(=O)CN1C(=O)S/C(=C\c2cccc(Cl)c2)C1=O)C1CCS(=O)(=O)C1 (centres undefined)
[30] COc1ccc(OC)c(NC(=O)CNC(=O)Cn2c(C)cc3ccccc3c2=O)c1
compound no.,25,26,27,28,29,30
Mtb hypoxia inh,10,8,nt,-9,7,5
Mtb hypoxia inh growth,5,10,nt,-1,1,6
Sa RN4220 lethal,7.3,8.0,51,3.5,2.5,0.1
ugtP null kill,4,1,13,-3,1,6
Autofluor counter,10934,nt,2808,3876,5478,9999
PrP 5UTR inh,-5,nt,-11,-27,-1,2
BJeLR viability,5,nt,-7,-7,-1,-18

[31] Cc1ccc(S(=O)(=O)NC(=O)Nc2c(C)n(C)n(-c3ccccc3)c2=O)cc1
[32] CC(=NNC(=O)c1cc2ccccc2cc1O)c1cccs1
[33] COc1ccc(C=NNC(=O)c2ccccc2F)cc1COc1ccc(F)cc1
[34] COc1ccc2c(c1)[nH]c1c(=O)n(CCN3CCCC3)cnc12
[35] O=C(Nc1ccnn1C1CCN(Cc2cc(Cl)ccc2O)CC1)C1CC1
[36] COc1ccc(CN2CCN(C3CCSCC3)CC2CCO)c(C)c1C (centres undefined)
compound no.,31,32,33,34,35,36
Mtb hypoxia inh,-9,7,7,nt,9,13
Mtb hypoxia inh growth,-11,-3,-1,nt,3,10
Sa RN4220 lethal,4.0,9.5,2.2,0.3,2.8,10
ugtP null kill,-2,5,10,1,8,3
Autofluor counter,9430,nt,nt,5216,4628,3850
PrP 5UTR inh,-2,nt,nt,-7,-2,-32
BJeLR viability,4,nt,nt,nt,8,5

[37] O=[N+]([O-])c1ccc(S(=O)(=O)N/N=C/c2cccs2)cc1
[38] CN(CC(=O)Nc1ccc(F)cc1)C(=O)CSc1ncccn1
[39] CCCCc1ccc(-c2ccc(C)cc2O)nc1
[40] NC(=O)C(C1=CCCCC1)c1ccccc1 (centres undefined)
[41] CCOCCCNC(=O)CS(=O)(=O)Cc1nc(-c2cccc(OC)c2)oc1C
[42] COc1ccc(/C=C/c2noc(-c3ccccc3OC(C)=O)n2)cc1
compound no.,37,38,39,40,41,42
Mtb hypoxia inh,nt,7,11,11,1,1
Mtb hypoxia inh growth,nt,5,16,1,10,9
Sa RN4220 lethal,nt,5.9,13,4.1,-0.5,-6.1
ugtP null kill,nt,8,69,2,-4,9
Autofluor counter,2154,nt,4301,2972,21852*,3817
PrP 5UTR inh,-19,-8,-31,-14,6,-29
BJeLR viability,13,3,-5,nt,11,-1

[43] Cc1ccc(C2=NS(=O)(=O)N(C)C(C(=O)NC(C)c3ccccc3)=C2)cc1 (centres undefined)
[44] N#Cc1ccsc1NC(=O)CN1CCN(S(=O)(=O)c2cc(Cl)ccc2Cl)CC1
[45] Cc1ccc(S(=O)(=O)NCC(=O)OCc2nnc(-c3ccccc3)o2)cc1
[46] CN1CCC(OC(=O)c2ccccc2)CC1
[47] CCOC(=O)C1CCCN(c2ncnc3c2cnn3-c2ccc(OC)cc2)C1 (centres undefined)
[48] N#Cc1nc(COc2ccccc2)oc1NCCN1CCOCC1
compound no.,43,44,45,46,47,48
Mtb hypoxia inh,6,8,-7,nt,4,1
Mtb hypoxia inh growth,10,4,-5,nt,10,6
Sa RN4220 lethal,-4.6,1.0,5.2,nt,9.4,4.7
ugtP null kill,-11,0,10,nt,5,3
Autofluor counter,5497,2649,5806,3635,9797,4597
PrP 5UTR inh,-22,-11,-26,-11,-17,-14
BJeLR viability,3,-7,-1,0,-16,-4

[49] CON=Cc1ccc(N2CCN(C(=O)c3ccc(Cl)cc3Cl)CC2)c([N+](=O)[O-])c1
[50] Cc1nn2c3ccccc3n(CCN3CCCCC3)c2nc1=O
[51] O=c1cc(-c2ccccc2)nc(/C=C/c2ccccc2)[nH]1
[52] CC(C)[C@H](NC(=O)C1CCN(S(=O)(=O)c2ccc(F)cc2)CC1)C(=O)NCc1ccncc1
[53] CCOc1ccccc1Nc1nnc(SCC(=O)NC2CC2)s1
[54] O=C(CN1CCOCC1)N1CCN(c2ccc([N+](=O)[O-])cc2)CC1
compound no.,49,50,51,52,53,54
Mtb hypoxia inh,0,nt,17,5,8,-1
Mtb hypoxia inh growth,-7,nt,17,2,3,0
Sa RN4220 lethal,9.7,-0.8,-1.4,7.2,2.4,-2.8
ugtP null kill,-1,10,-18,-4,-1,1
Autofluor counter,nt,3787,4099,5493,8237,4239
PrP 5UTR inh,nt,-17,nt,-9,-18,-6
BJeLR viability,nt,9,4,10,nt,nt

[55] Cc1ccc(-c2nc(CCNC(=O)c3ccco3)cs2)cc1
[56] CCCNC(=O)C(=O)NCC1CCCN1CC (centres undefined)
[57] O=C(Cn1c(-c2ccccc2)noc1=O)Nc1ccc(S(=O)(=O)N2CCOCC2)cc1
[58] O=C(O)c1cc(O)c2c(c1)C(C1c3cc(C(=O)O)cc(O)c3C(=O)c3c(OC4OC(CO)C(O)C(O)C4O)cccc31)c1cccc(OC3OC(CO)C(O)C(O)C3O)c1C2=O (centres undefined)
[59] COc1ccc(/C=C/c2ccc(=O)n(Cc3ccccc3)n2)cc1
[60] COc1ccc(OC)c(NC(=O)CCN2CCCCCC2)c1
compound no.,55,56,57,58,59,60
Mtb hypoxia inh,nt,11,1,5,4,nt
Mtb hypoxia inh growth,nt,-2,9,-2,-3,nt
Sa RN4220 lethal,nt,13,2.8,17,3.2,-0.7
ugtP null kill,nt,6,1,0,15,-4
Autofluor counter,6562,4338,10369,nt,2571,3439
PrP 5UTR inh,-10,-27,-11,nt,-7,4
BJeLR viability,8,15,-1,nt,-6,-3

[61] C=CCNC(=S)NN=C(C)c1ccc(-n2ccnc2)cc1
[62] CN1\C(=C/C=C/C=C/C=[N+](C)C)C(C)(C)c2ccccc21
[63] CCNC(=O)N1c2ccccc2Sc2ccccc21
[64] COc1ccc2nc(Nc3nc(C)c(CCC(C)C)c(=O)[nH]3)nc(C)c2c1
[65] C(=NNc1ccc2ccccc2n1)c1ccc2c(c1)OCCO2
[66] CC(C)CN(C(=O)CN1CCC(C)CC1)c1c(N)n(CC(C)C)c(=O)[nH]c1=O
[67] C=C1C(=O)O[C@H]2C1CC[C@@](C)(O)C13C=CC(C)(C21)C1(C3)C(=O)O[C@@H]2C3C(C)=CCC3[C@](C)(O)C[C@H](OC(C)=O)C21 (some centres undefined)
[68] CCc1nc(NCc2ccccn2)c2oc3ccccc3c2n1
[69] CCOCCCNC(=O)NC(=O)CN1CCN(S(=O)(=O)c2ccc3c(c2)OCCO3)CC1
compound no.,61,62,63,64,65,66,67,68,69
Mtb hypoxia inh,11,6,20,17,-1,3,-8,nt,2
Mtb hypoxia inh growth,15,19,2,26,15,11,0,nt,-5
Sa RN4220 lethal,6.2,3.2,5.1,7.5,2.0,8.8,3.0,2.2,3.1
ugtP null kill,12,-8,-3,9,5,7,1,-8,7
Autofluor counter,nt,3486,1964,15728,nt,4128,2443,3285,3937
PrP 5UTR inh,nt,-1,9,-24,nt,-28,-23,-1,-27
BJeLR viability,nt,13,-10,-4,nt,1,-3,3,13
